Source: PubChem BioAssay
Mtb H37Rv: Mycobacterium tuberculosis H37Rv growth inhibition, cell based, confirmatory dose response (AID 1949); M. tuberculosis H37Rv growth inhibition; most inactive calls were filed without a number and no value below 0 was filed; inhibition, % at 10 µg/mL, or IC50 in µg/mL where a hit was titrated; 100,000 compounds, 1.6% hits;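 active = confirmed in a dose series; inconclusive = about 50% or more but not retested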;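 also: bacteria grown 7 days with compound before Alamar blue readout; 0% = untreated bacteria and 100% = reference antibiotic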
Numbers without * were called inactive; i = inactive; ? = inconclusive. These rows are one share of the data; the hit share may differ from the screen's.

Molecule	Mtb H37Rv
COC(=O)c1ccc(NC(CNS(=O)(=O)c2ccccc2)c2ccccc2)cc1 (centres undefined)	i
COC(=O)c1c(-c2ccc(C)cc2)csc1NC(=O)c1ccccc1Br	7%
COc1ccc(OC)c(NC(=O)CSc2nnc(-c3cccc([N+](=O)[O-])c3)n2C)c1	i
CC(C)(C)NCCCOc1ccc(Cl)cc1	i
Cc1ccc(Cl)cc1NC(=O)CC1Sc2ccccc2NC1=O (centres undefined)	i
CCc1ccccc1Oc1coc2cc(O)ccc2c1=O	i
Cc1ccc(N(Cc2ccccc2Cl)S(C)(=O)=O)cc1	i
CCc1ccc(-n2c(SCC(=O)Nc3ccc(OC)cc3)nnc2-c2ccc(Cl)cc2)cc1	i
COc1cc(OC)c(NC(=O)COc2ccc(C)cc2)cc1Cl	i
NC(=O)Cc1nc(-c2ccc(F)cc2)cs1	i
O=[N+]([O-])c1ccc(N2CCN(S(=O)(=O)c3ccc(F)cc3)CC2)c(C(F)(F)F)c1	4%
CC(NC(=O)c1cccc(F)c1)C1CC2CCC1C2 (centres undefined)	i
Nc1ccccc1C(=O)N1CCN(C(c2ccccc2)c2ccccc2)CC1	i
CCn1c(C)c(C(C)=O)c(N2CCN(Cc3ccc4c(c3)OCO4)CC2)nc1=S	i
COC(=O)C1=CN(CC(C)C)C=C(C(=O)OC)C1c1cc(Br)ccc1OC	i
O=C(NNC(=O)C1c2ccccc2Oc2ccccc21)Nc1ccc2c(c1)OCO2	i
Cc1ccccc1C(=O)NC(NC(=O)c1ccccc1C)c1cccc([N+](=O)[O-])c1	i
O=C(NC1CCCc2ccccc21)C1CCCO1 (centres undefined)	i
CC1=C(C(=O)Nc2cccc(Cl)c2C)C(c2ccccc2C)NC(=S)N1 (centres undefined)	5%
CC1CN(CCOc2ccc([N+](=O)[O-])cc2)CC(C)O1 (centres undefined)	i
OCC1(CO)COC(c2ccccc2)=N1	i
Ic1ccc2ncnc(Nc3ccc4c(c3)OCCO4)c2c1	6%
O=C(COc1ccc(Cl)cc1)N(Cc1ccccc1)c1ccccn1	1%
CC1Cc2ccccc2N1C(=O)c1ccnc(C(C)(C)C)c1 (centres undefined)	3%
COc1ccc(-c2cc(C(=O)N3CCN(c4ccc([N+](=O)[O-])cc4)CC3)c3ccccc3n2)cc1OC	i
COc1c(C)cccc1C(=O)Nc1ccc(N2CCN(C(=O)c3ccccc3C)CC2)cc1	2%
COc1ccc(CCNCc2ccc(OCC(=O)N3CCOCC3)c(OC)c2)cc1OC	i
COc1ccc(C(C)NC(=O)c2csc(C)c2)cc1OC (centres undefined)	i
CCSc1ccccc1C(=O)Nc1ccc(S(=O)(=O)Nc2ncccn2)cc1	i
Cc1ccc(N2CC(C(=O)Nc3ccccn3)CC2=O)cc1 (centres undefined)	i

Going on with the list:
Molecule	Mtb H37Rv
Cc1ccc(-c2nc(-c3ccc(Cl)cc3)no2)cc1Cl	7%
COc1ccc(OC)c(N(CC(=O)Nc2cc(Cl)ccc2Cl)S(=O)(=O)c2ccccc2)c1	i
CCOC(=O)Nc1nnc(-c2cccc(OC)c2)s1	7%
S=C(NCCC(c1ccccc1)c1ccccc1)NC1CC1	i
NS(=O)(=O)c1ccc(CCNC(=O)CSc2cccs2)cc1	i
Cn1c(=O)c2ncn(CC(=O)Nc3ccc(-c4cc5ccccc5oc4=O)cc3)c2n(C)c1=O	i
COC(=O)C1CCCN1S(=O)(=O)c1ccc(C)cc1 (centres undefined)	i
O=[N+]([O-])c1ccc2c(c1)ncn2CCc1ccccc1	i
CN(C)c1oc(COc2ccccc2F)nc1C#N	1%
CCOC(=O)c1cc(-c2ccccc2)sc1NC(=S)Nc1cnn(CC)c1C(N)=O	i
CCCCc1ccc(NC(=O)c2ccc(OC)c(OC)c2)cc1	i
Cc1cc2oc3c(c(=O)c2cc1C)C(c1ccc([N+](=O)[O-])cc1)N(Cc1ccccc1)C3=O (centres undefined)	2%
O=[N+]([O-])c1ccc(NS(=O)(=O)c2ccccc2)c(NS(=O)(=O)c2ccccc2)c1	i
Cc1cc(NS(=O)(=O)c2ccc(NC(=O)C(C)(C)C)cc2)nc(C)n1	i
CCn1c(SCC(C)=O)nc2scc(-c3ccc(Cl)cc3)c2c1=O	i
CC(C(=O)N1CCN(C)CC1)N(c1ccccc1)S(C)(=O)=O (centres undefined)	i
CNCCCOc1ccccc1-c1ccccc1	i
O=[N+]([O-])c1ccc2c(c1)nc1n2CCN(Cc2ccco2)C1	i
CCOc1ccc(S(=O)(=O)n2cnc(C)c2)cc1	i
O=C(NCc1ccc(-c2nc3ccccc3s2)cc1)c1ccccc1[N+](=O)[O-]	i
O=C(/C=C/c1ccc(-c2cc(Cl)ccc2Cl)o1)c1ccc(Cl)cc1	i
COc1ccc(-c2nc3ccccc3o2)cc1NC(=O)c1c(F)c(F)c(F)c(F)c1F	i
CCOC(=O)C1CCN(c2c(-c3ccccc3)c3cc(Cl)ccc3[nH]c2=O)CC1	2%
CCCCNCCCCCOc1cccc(Cl)c1	37%
CCOC(=O)Nc1scc(-c2ccc(Cl)cc2Cl)c1C(N)=O	i
CCC(C)(C)NC(=O)c1c(Cl)cccc1Cl	1%
COc1ccc(CNC2CCCC2)cc1	i
O=C(CCc1ccc(S(=O)(=O)NCc2ccccc2)cc1)NC1CCCCCC1	i
C=CCc1cccc(Cl)c1OCCN1CCNCC1	i
CCOc1ccc(C2NC(=O)NC(C)=C2C(=O)Nc2ccc(OC)cc2OC)cc1 (centres undefined)	i

3 entries picked at random from the list so far:
Molecule	Mtb H37Rv
COc1ccc(OC)c(N(CC(=O)Nc2cc(Cl)ccc2Cl)S(=O)(=O)c2ccccc2)c1	i
Cn1c(=O)c2ncn(CC(=O)Nc3ccc(-c4cc5ccccc5oc4=O)cc3)c2n(C)c1=O	i
Cc1cc2oc3c(c(=O)c2cc1C)C(c1ccc([N+](=O)[O-])cc1)N(Cc1ccccc1)C3=O (centres undefined)	2%

New compounds follow:
Molecule	Mtb H37Rv
Cc1oc2cc(OCC(N)=O)ccc2c(=O)c1Oc1ccccc1Br	?
COc1ccc(Cl)cc1-n1c(C)cc(C=O)c1C	i
CCC(=O)N1CCN(c2ccccc2NC(=S)NC(=O)c2ccco2)CC1	i
Cc1nc(-c2cccc(NS(=O)(=O)c3cccc4ccccc34)c2)cs1	i
CC(C)C(=O)Nc1ccccc1C1(C)CC1	i
O=C(Oc1cccc(Nc2ncnc3ccccc23)c1)c1ccc(F)cc1	i
Cc1ccc(C(C)C)c(OCC(=O)Nc2ccc(Br)cc2C)c1	i
Cc1ccc(S(=O)(=O)N2CCOCC2)cc1C(=O)Nc1ccc(Cl)cn1	i
Cc1ccc(C(=O)NCc2nnc(SCC(=O)NC(C)c3ccccc3)n2C)cc1 (centres undefined)	i
CCN(CC)CCOc1nnc(-c2ccccc2)c2ccccc12	i
CC1CN(c2oc(-c3ccco3)nc2S(=O)(=O)c2ccccc2)CC(C)O1 (centres undefined)	i
CC(C(=O)NCc1ccccc1)N1C(=O)C2CC=C(Cl)CC2C1=O (centres undefined)	0%
Cc1onc(-c2ccccc2Cl)c1C(=O)N1CCc2ccccc21	i
Cn1nnnc1SCCNCC#Cc1ccccc1	i
COc1ccc(-c2ccc(C#N)c(SCC(=O)Nc3cccc(C(F)(F)F)c3)n2)cc1	2%
COc1ccc2oc(=O)c(-c3nnc(Nc4ccccc4Cl)s3)cc2c1	i
NC(=O)c1ccccc1NC(=O)c1cc(-c2ccc(Br)cc2)nc2ccccc12	i
CC(NC(=O)C1CCCCC1)C12CC3CC(CC(C3)C1)C2 (centres undefined)	i
O=C(Nc1ccc2oc(-c3cc(F)c(F)cc3Cl)nc2c1)c1cc2ccccc2o1	1%
COc1ccc(CC(=O)Nc2ccc(NC(C)=O)cc2)cc1	6%
CCOC(=O)CN1C(=O)C(O)(CC(=O)c2ccc(Cl)cc2Cl)c2ccccc21 (centres undefined)	i
COc1cc(NC(=O)c2ccc([N+](=O)[O-])cc2)ccc1NC(=O)c1ccccc1	3%
Cc1cc(O)c(NC(=S)NC(=O)c2cc(Br)ccc2Cl)cc1C	28%
NC(=O)CSCc1c(F)cccc1Cl	i
COc1ccc(S(=O)(=O)n2cc(-c3ccc(C)cc3)c(N)n2)c(OC)c1	i
C=C(C)CSc1nc2c(cc1C#N)CCC2	i
CC12CCC(C(=O)N3CCCCCC3)(CC1=O)C2(C)C (centres undefined)	i
COc1cc(OC)c(-c2nc(-c3ccc(C)cc3)no2)cc1OC	i
CCN1CCN(Cc2c(O)ccc3c(=O)c(-c4ccccc4OC)c(C(F)(F)F)oc23)CC1	i
CCOC(=O)c1ccc(NC(=O)C(NC(=O)c2cccs2)C(C)C)cc1 (centres undefined)	i

Continuation.
Molecule	Mtb H37Rv
CCOc1c(Br)cc(CNCCc2ccccc2F)cc1OC	3%
O=C(CN(Cc1ccc(Cl)cc1Cl)S(=O)(=O)c1ccccc1)NCc1ccccn1	2%
COCCCNC(=S)Nc1ccc(N2CCOCC2)c2nonc12	i
c1ccc2nc3c(nc2c1)CCc1nonc1-3	i
O=C(N1CCN(c2ccccn2)CC1)N(c1ccccc1)c1ccccc1	i
CS(=O)(=O)N(CC(=O)NC1CCCC1)C1CCCCC1	i
O=C(NCc1ccc(Cl)cc1)C1CCN(C(=O)c2ccc(F)cc2)CC1	i
COc1cc(NC(=S)N2CCN(CCO)CC2)c(OC)cc1Cl	i
CCCC(C)c1nnc(NC(=O)C(C)Oc2ccccc2)s1 (centres undefined)	i
Cc1ccc(N(CC(=O)Nc2ccccc2Br)S(C)(=O)=O)c(C)c1	i
CC(C)C(=O)NCC(C)(C)CNC(=O)C(C)C	i
CCOc1ccccc1OCC(=O)Nc1ccc(N2CCCCC2)cc1	5%
CCOC(=O)CNC(=O)Nc1ccc(OC)cc1OC	i
Cc1nn(S(=O)(=O)c2cccc([N+](=O)[O-])c2)c(C)c1Br	i
CCOc1ccc(S(=O)(=O)/N=C(\N)c2ccccc2)cc1	0%
CCC(C)NCCOCCOc1c(C)cc(Cl)cc1C (centres undefined)	i
Cc1ccnc(SCC(=O)Nc2sc3c(c2C#N)CCC(C(C)(C)C)C3)n1 (centres undefined)	i
O=C(Nc1ccc(F)c(F)c1)NC1CCCCC1	i
COCCNCCCOc1c(Cl)cc(C)cc1Br	i
CC(=O)c1ccc(N2CCN(C(=S)Nc3ccc(S(=O)(=O)Nc4ncccn4)cc3)CC2)cc1	i
COc1ccc(OC)c(NC(=S)NNC(=O)COc2cc(C)ccc2C)c1	i
COc1cccc(CNCc2cccnc2)c1OCc1ccccc1	2%
Cc1cccc(C(C)C)c1NC(=O)Cc1ccc(Cl)cc1	i
CCC(C)c1ccc(OCCNCCCOC)cc1 (centres undefined)	i
COCCCN1C(=O)c2[nH]nc(-c3cc(C)c(C)cc3O)c2C1c1ccc(SC)cc1 (centres undefined)	7%
CC(Oc1ccc(Br)cc1)C(=O)N1CCN(C)CC1 (centres undefined)	i
COc1ccc(-c2cc(=O)c3cc(OC(=O)c4ccco4)ccc3o2)cc1	i
C=CCc1cc(OC)ccc1OCCCCN1CCCC1	i
N#Cc1ccccc1COc1ccc(Br)cc1CO	5%
COc1ccc(NS(=O)(=O)c2cc(OCC(N)=O)c(C)cc2Cl)c(OC)c1	i

The list goes on:
Molecule	Mtb H37Rv
O=C(CSc1nnc(-c2ccncc2)n1-c1ccc(F)cc1)Nc1ccccc1C(F)(F)F	i
C=CCSc1nnc2c(n1)[nH]c1ccc(Br)cc12	2%
O=C(COc1ccc([N+](=O)[O-])cc1)Nc1sc2c(c1C(=O)NC1CCS(=O)(=O)C1)CCCC2 (centres undefined)	i
O=C(CSc1nnc(COc2ccccc2)o1)N1CCN(c2ccccc2)CC1	i
O=C(COc1ccc(Br)cc1C(=O)O)NCCc1ccccc1	0%
CCOC(=O)c1c(NC(=O)c2cccs2)sc(C(=O)N(CC)CC)c1C	i
Cc1cc(C)nc(NC(=O)c2ccccc2Br)c1	6%
Nc1nnc(SCc2nnc(-c3ccccc3)o2)s1	15%
O=C(NC(=S)Nc1ccccc1F)C(c1ccccc1)c1ccccc1	i
Cc1ccc(NC(=O)c2ccoc2C)c(Br)c1	i
O=C(Cc1ccccc1Cl)NC1=NCCS1	i
Cc1cc(=O)oc2ccc(OCC(=O)Nc3ccc4c(c3)OCCO4)cc12	i
CCCn1c(Cc2ccccc2)nnc1SCC(=O)Nc1ccc(Cl)c(Cl)c1	i
COc1cc(/C=C2\Oc3ccccc3C2O)cc(Cl)c1OC (centres undefined)	3µg/mL*
COc1ccccc1C(=O)N1CCN(c2nnc(-c3ccc(C)cc3)c3ccccc23)CC1	i
Cc1cc(OCC(=O)NCc2ccccn2)cc(C)c1Br	i
COc1ccc(Br)cc1S(=O)(=O)NC1CCCCC1	i
CN1NC(=O)CC1C(=O)Nc1sc2c(c1C#N)CCCC2 (centres undefined)	i
CCOC(=O)c1ccc(Nc2nc(-c3cccnc3)nc3ccccc23)cc1	4%
Cc1cc(C)nc(NC(=O)COc2ccc(Br)cc2)n1	27%
O=C(Oc1ccc2c3c(c(=O)oc2c1)CCCC3)C1CC1	25%
O=C(NCC1CCCO1)c1ccccc1 (centres undefined)	i

Some values from the list:
Under Mtb H37Rv, C=CCSc1nnc2c(n1)[nH]c1ccc(Br)cc12 is entered as 2%
Under Mtb H37Rv, O=C(COc1ccc(Br)cc1C(=O)O)NCCc1ccccc1 is entered as 0%
